# Assay outcomes from PubChem BioAssay.
# Env fusion inh – blocks HIV Env-driven cell-cell fusion; HeLa-JRFL Env/CEM21 cell fusion, luciferase; inhibition, % at 12.3 µM; 360,000 tested, 1.1% active; AID 651610;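 active = mean replicate inhibition score of at least 50 and every replicate individually at or above 50; inconclusive = only one of the two criteria met; inactive = mean below 50 and not all replicates reaching 50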;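 also: 0% = plate neutral controls and 100% = maraviroc near 300 nM; one replicate is shown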
# CSC inhib – cancer stem cell inhibition. 300,000 tested, 1.1% active. inhibition, % at 7.5 µM. cancer stem cell-like cells viability, luminescence;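 active = mean at 75% or more and at least half the replicates too; inconclusive = mean and replicates disagree; tested in HMLE shEcad cells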;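 also: 0% = median of negative and 100% = median of positive control wells; the first replicate is given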
# MT1-MMP act inh – MT1-MMP (human) activation inhibition; 360,000 tested, 0.061% active; GFP/RFP ratio change, % at 20 µM; AID 651647; HT1080 RFP-PRO-GFP cells, GFP/RFP ratio fluorescence, overnight; percent of plate control window, DMSO zero;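 active = GFP/RFP ratio change of at least 30% with cell ATP level not reduced by more than half and red fluorescence within 50% of control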; also: strong numbers were not always called active
#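 system = RFP-PRO-GFP reporter HT1080 cells | dosing = 20 µM single dose, 1% DMSO | timing = overnight cell settling, then overnight compound exposure, 37 °C, 5% CO2 | read-out basis = GFP/RFP fluorescence ratio | controls = DMSO and RFP-L50D-GFP cell wells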
# Rce1 inh – yeast Ras-converting enzyme inhibition | Q03530 | yeast membranes, quenched prenylated peptide cleavage fluorescence | calls only | 290,000 tested, 0.27% active | AID 2563;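 active = fall in fluorescence gain of 50% or more versus controls, with final raw signal at or below 3038400; inconclusive = same 50% fall but final raw signal above 3038400; inactive = fall in fluorescence gain under 50%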;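 also: plate controls were neutral control wells for no effect and wells lacking membranes for full effect; tested at 10 µM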
# Yeast UUG start – modulators of start codon recognition fidelity in yeast. S. cerevisiae UUG-firefly luciferase reporter, luminescence/redox ratio. activity score, % at 18.7 µM. 350,000 tested, 0.13% active. AID 602363;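 active = replicate mean at a twofold rise or more, about +100% in these data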;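 also: firefly luciferase made from a UUG start codon reports start codon fidelity; reporter light over untreated wells divided by growth signal over untreated wells; some hits fall short of that in this replicate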
# eIF4H FP inh – inhibitors of RNA binding by human eIF4H | Q15056 | eIF4H fluorescence polarization binding assay | inhibition, % at 35 µM | 290,000 tested, 0.94% active | AID 2012;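 active = 50% or more with normal probe brightness, or confirmed in later tests; inconclusive = above 50% with abnormal brightness, or retests that disagree; inactive = below 50% or failed in later tests; about a fifth of its hits are not listed in these tables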;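 also: calls also rest on retests at 20 µM and on dose response follow-up; 0% = protein and probe with vehicle and 100% = probe without protein; strong numbers were not always called active; many hits fall short of the cut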
# PABP polyA inh – PABP-poly(A) binding inhibition | inhibition, % at 35 µM | 290,000 tested, 1% active | P11940 | AID 2014 | PABP-poly(A) RNA binding, fluorescence polarization;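 active = 50% or more with normal probe brightness, or confirmed in later tests; inconclusive = above 50% with abnormal brightness, or retests that disagree; inactive = below 50% or failed in later tests; about a fifth of its hits are not listed in these tables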;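 also: calls also rest on retests at 20 µM and on dose response follow-up; controls were probe without protein and protein plus probe with vehicle; some compounds called inactive have numbers as strong as hits; many hits fall short of the cut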
# Target sequence (P11940 whole entry, looked up): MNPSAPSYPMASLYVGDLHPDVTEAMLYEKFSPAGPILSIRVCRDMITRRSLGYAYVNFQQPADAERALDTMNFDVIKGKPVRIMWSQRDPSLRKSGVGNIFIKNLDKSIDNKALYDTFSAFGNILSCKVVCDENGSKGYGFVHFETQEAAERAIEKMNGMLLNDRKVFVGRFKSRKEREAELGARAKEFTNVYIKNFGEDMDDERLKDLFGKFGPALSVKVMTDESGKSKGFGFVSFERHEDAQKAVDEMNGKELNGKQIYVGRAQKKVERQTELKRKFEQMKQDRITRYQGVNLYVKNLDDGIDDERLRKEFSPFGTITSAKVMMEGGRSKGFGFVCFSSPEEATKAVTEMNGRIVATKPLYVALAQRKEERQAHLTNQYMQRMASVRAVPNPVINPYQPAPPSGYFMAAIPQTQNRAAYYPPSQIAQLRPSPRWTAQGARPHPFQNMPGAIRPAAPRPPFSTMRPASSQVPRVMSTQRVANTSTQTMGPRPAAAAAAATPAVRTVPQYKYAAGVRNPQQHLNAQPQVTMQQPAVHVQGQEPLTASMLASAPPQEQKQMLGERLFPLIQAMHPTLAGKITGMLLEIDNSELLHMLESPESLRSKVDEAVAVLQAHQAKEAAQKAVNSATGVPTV
# MT1-MMP act inh RFP – second read-out of MT1-MMP act inh, no call of its own (marks repeat the call); RFP signal change, %; measured here: RFP expression control read;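 0 = vehicle wells; hits needed this value within 50% of zero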
# * hit, by the source's call; i = inactive; ? = inconclusive; nt = not tested or not shown; & = joins results of further samples.
# Letters: A = Env fusion inh; B = CSC inhib; C = MT1-MMP act inh; D = MT1-MMP act inh RFP; E = Rce1 inh; F = Yeast UUG start; G = eIF4H FP inh; H = PABP polyA inh
CCC(=O)Nc1nnc(Sc2ccc(N(C)C)cc2)s1
  A: nt	B: -24	C: 6	D: -1	E: i	F: nt	G: 0	H: -4
CCOC(=O)C1=C(C)NC(=O)NC1c1ccc(NC(C)=O)cc1 (stereo unspecified)
  A: -47	B: 3	C: -5	D: 3	E: i	F: nt	G: -5	H: -1
O=C(N/C(=C\c1ccco1)C(=O)N1CCCCC1)c1ccc([N+](=O)[O-])cc1
  A: nt	B: 2	C: 0	D: 0	E: nt	F: -11	G: nt	H: nt
O=C(O)C1=C[C@@H](c2coc3ccccc3c2=O)C[C@@H](OCCCCO)O1
  A: 9	B: 1	C: -5	D: 3	E: i	F: -20	G: 0	H: -4
COC(=O)c1sccc1NC(=O)c1ccc(C)o1
  A: -40	B: -15	C: 1	D: 2	E: i	F: 1	G: 4	H: 6
Cc1onc(-c2c(F)cccc2Cl)c1C(=O)Nc1ccc(S(=O)(=O)N2CCOCC2)cc1
  A: -28	B: -7	C: 0	D: -2	E: nt	F: -2	G: nt	H: nt
COC(=O)c1cn(C(=O)c2ccc(OC)cc2)c2ccccc12
  A: -118	B: 24	C: -3	D: -5	E: nt	F: -14	G: -6	H: -11
COc1ccc(-c2nc(CSCC(=O)N3CCN(C)CC3)c(C)o2)cc1OC
  A: -4	B: -10	C: 3	D: 4	E: i	F: 1	G: -11	H: 6
Nc1c(C(=O)NCCC2=CCCCC2)sc2ccc(S(=O)(=O)N3CCCCC3)cc12
  A: -4	B: nt	C: 4	D: 3	E: i	F: -10	G: 1	H: 0
CCn1cc(CN2CCC(n3nccc3NC(=O)C3CCCC3)CC2)c(C)n1
  A: 11	B: -19	C: 3	D: 5	E: i	F: -18	G: 8	H: 10
O=C(CCSc1nnc2scc(-c3ccccc3)n12)Nc1nc(-c2ccccc2)ns1
  A: -2	B: 4	C: 0	D: -7	E: i	F: 1	G: 7	H: 10
COc1cccc(/C=C/C(=O)OCC(=O)Nc2cccc(S(=O)(=O)NC3=NCCCCC3)c2)c1
  A: nt	B: -19	C: -4	D: 1	E: nt	F: 2	G: nt	H: nt
Clc1ccccc1CSc1nnc(-c2cccnc2)n1Cc1ccco1
  A: 17	B: -5	C: -5	D: 3	E: i	F: 2	G: -4	H: -1
O=C(NNc1ccc(Cl)nn1)c1ccc(Cl)cc1
  A: 31	B: -14	C: 2	D: 7	E: nt	F: nt	G: 1	H: -8
COc1cccc(OC)c1OCCN1CCN(C(c2ccccc2)c2ccccc2)CC1
  A: -2	B: 13	C: -4	D: -6	E: i	F: 7	G: -16	H: 10

# Entries of single compounds as entered above:
# `COc1cccc(OC)c1OCCN1CCN(C(c2ccccc2)c2ccccc2)CC1` is listed with Env fusion inh: -2; CSC inhib: 13; MT1-MMP act inh: -4; MT1-MMP act inh RFP: -6; Rce1 inh: i; Yeast UUG start: 7; eIF4H FP inh: -16; PABP polyA inh: 10
# `CCOC(=O)C1=C(C)NC(=O)NC1c1ccc(NC(C)=O)cc1` (stereo unspecified) is listed with Env fusion inh: -47; CSC inhib: 3; MT1-MMP act inh: -5; MT1-MMP act inh RFP: 3; Rce1 inh: i; Yeast UUG start: nt; eIF4H FP inh: -5; PABP polyA inh: -1
# `Nc1c(C(=O)NCCC2=CCCCC2)sc2ccc(S(=O)(=O)N3CCCCC3)cc12` is listed with Env fusion inh: -4; CSC inhib: nt; MT1-MMP act inh: 4; MT1-MMP act inh RFP: 3; Rce1 inh: i; Yeast UUG start: -10; eIF4H FP inh: 1; PABP polyA inh: 0

# Next records
# Letters: A = Env fusion inh; B = CSC inhib; C = MT1-MMP act inh; D = MT1-MMP act inh RFP; E = Rce1 inh; F = Yeast UUG start; G = eIF4H FP inh; H = PABP polyA inh
CSc1ccc(Cn2c(C)c(C(=O)NCCC#N)sc2=O)cc1
  A: 3	B: nt	C: -4	D: -1	E: nt	F: -12	G: nt	H: nt
Cc1oc2c(CN3CCCC3)c(O)ccc2c(=O)c1Oc1ccccc1Br
  A: -50	B: -4	C: 9	D: 6	E: ?	F: 0	G: -4	H: -13
O=C1CCCC(O)=C1C1C2=C(CCCC2=O)OC2=C1C(=O)CCC2
  A: 31	B: 12	C: -5	D: 4	E: i	F: -7	G: -5	H: -5
Cc1ccc(-c2n[nH]c(=O)c3ccccc23)cc1S(=O)(=O)Nc1ccccc1
  A: nt	B: 43	C: 1	D: -6	E: i	F: -5	G: -6	H: 5
CC(=O)OCC(=O)[C@@]1(O)CCC2C3CCC4=CC(=O)CCC4(C)C3C(=O)CC21C (stereo partly specified)
  A: 10	B: nt	C: 4	D: 4	E: i	F: -8	G: -7	H: -8
O=C(Nc1ccc(Cl)cc1)Nc1cccc(C(=O)O)c1
  A: 71*	B: -3	C: 2	D: 2	E: i	F: nt	G: 6	H: 0
O=C(Nc1ccon1)C1CCN(S(=O)(=O)c2cccs2)CC1
  A: nt	B: -6	C: 0	D: 5	E: i	F: -2	G: 4	H: -1
CCCNC(=O)C(Cc1ccc(OC)cc1)NC(=O)c1ccc(C#N)cc1 (stereo unspecified)
  A: -1	B: 4	C: 1	D: -1	E: nt	F: -18	G: nt	H: nt
COc1cc(/C=C/C(=O)OCC(=O)Nc2oc(C)c3c(C)n[nH]c(=O)c23)ccc1OC(F)F
  A: -38	B: -3	C: 2	D: 3	E: i	F: -3	G: nt	H: nt
CCN(Cc1nc2ccccc2c(=O)[nH]1)C(=O)c1cccc(OCc2c(C)noc2C)c1
  A: -6	B: nt	C: -1	D: -18	E: nt	F: 0	G: nt	H: nt
CC(C)CCCCCCNC(=S)Nc1ccc(S(=O)(=O)N2CCOCC2)cc1
  A: 13	B: 91*	C: -17	D: -31	E: i	F: -9	G: -6	H: -8
O=C(Nc1cccc(Cl)c1)C1COc2ccccc2O1 (stereo unspecified)
  A: 1	B: -7	C: 2	D: -1	E: i	F: 1	G: -1	H: 3
Cc1cc(S(=O)(=O)Nc2c(C(=O)O)[nH]c3ccccc23)ccc1F
  A: -22	B: -3	C: 0	D: 4	E: nt	F: 4	G: -9	H: 7
CC1(C)NC(=O)N(CCCCOc2cccc(C(F)(F)F)c2)C1=O
  A: 22	B: 0	C: 8	D: 0	E: i	F: -1	G: 3	H: 4
CCOC(=O)C1CCN(C(=O)/C(C)=C\c2ccccc2)CC1
  A: -9	B: -13	C: -2	D: 4	E: i	F: nt	G: 8	H: -3
CCCCCCCCCOC1OC(CO)C(O)C(O)C1NC(C)=O (stereo unspecified)
  A: -12	B: 6	C: -3	D: -2	E: i	F: nt	G: 5	H: 3
Cc1nc2cc(NC(=O)COc3ccccc3C#N)ccc2n1-c1ccccc1
  A: nt	B: 11	C: -2	D: -1	E: i	F: -22	G: 7	H: -15
O=S(=O)(NCCc1cccs1)c1ccc(Br)cc1
  A: 2	B: 2	C: 3	D: 6	E: i	F: -4	G: -8	H: 2
O=C(Cc1ccc(-n2c(=O)c3ccccc3n(Cc3ccccc3F)c2=O)cc1)NCC1CCCO1 (stereo unspecified)
  A: -11	B: -9	C: 2	D: -4	E: i	F: -7	G: 3	H: -5
CC1CCC2C(C1)Nc1c(C(=O)O)cccc1C2(C)C (stereo unspecified)
  A: 5	B: -13	C: -18	D: 2	E: i	F: nt	G: 12	H: 20
Cc1cc(C2C(=O)C(C(=O)c3ccc(Cl)cc3)C(=O)CC2(C)C)on1 (stereo unspecified)
  A: nt	B: 5	C: 6	D: 3	E: i	F: -13	G: -12	H: 2
C[C@H]1CN([C@@H](C)CO)C(=O)CCCn2cc(nn2)CO[C@@H]1CN(C)C(=O)Nc1ccccc1
  A: 11	B: nt	C: 2	D: 3	E: nt	F: -36&4	G: nt	H: nt
O=C(CP(=O)(c1ccccc1)c1ccccc1)Nc1nc2ccccc2s1
  A: -4	B: -9	C: -2	D: -1	E: i	F: nt	G: -2	H: -14
O=C(c1cccc(S(=O)(=O)N2CCc3ccccc32)c1)N1CCOCC1
  A: 5	B: 5	C: -1	D: 2	E: nt	F: -8	G: nt	H: nt
O=C(N/N=C/c1cccnc1)c1cc(Br)ccc1O
  A: -7	B: -2	C: 6	D: 1	E: i	F: -1	G: -10	H: 1
O=C(NCc1ccc(F)cc1)c1cnc2sccn2c1=O
  A: -23	B: -15	C: -1	D: 3	E: i	F: -8	G: 6	H: 5
O=C(C#Cc1cccc([N+](=O)[O-])c1)c1ccccc1
  A: nt	B: 39	C: 13	D: -16	E: i	F: -24	G: 6	H: 2
CCCCNc1c(-c2ccc(OC)c(Sc3ccc(OC)cc3)c2)nc2cnccn12
  A: -45	B: nt	C: -9	D: -2	E: nt	F: -20	G: nt	H: nt
O=C(/C=C/c1ccccc1Cl)NC(=S)Nc1ccccc1C(=O)NC1CCCCC1
  A: -6	B: -4	C: 1	D: 1	E: i	F: -14	G: 1	H: -3
COc1ccc(-n2nc3c(c2NC(=O)C2CCCC2)CS(=O)(=O)C3)cc1
  A: 8	B: -4	C: -1	D: 1	E: i	F: -10	G: -10	H: -6
O=S(=O)(c1ccccc1C(F)(F)F)N1CCC(n2cnc3ccccc32)CC1
  A: nt	B: -8	C: 4	D: -6	E: i	F: -10	G: -8	H: -12
N#CC(C(=O)C1CCCCC1)c1nc2ccccc2[nH]1 (stereo unspecified)
  A: nt	B: nt	C: -43	D: -26	E: i	F: -7	G: 12	H: -8
CC(C)(C)C(=O)Cn1nc(Cl)nc1Cl
  A: -3	B: 1	C: 3	D: 6	E: i	F: nt	G: 2	H: 23
COc1cccc(-c2noc(-c3ccc(Cl)nc3)n2)c1
  A: -60	B: -22	C: 3	D: -1	E: i	F: nt	G: 4	H: -9
O=C(NC1CC1)C1=C[C@H](c2csc3ccccc23)C[C@H](OCCCCO)O1
  A: -23	B: -19	C: 0	D: 3	E: i	F: -21	G: 30	H: -4
Cc1cc2nnn(-c3nnc(-c4ccccc4)c4ccccc34)c2cc1C
  A: nt	B: -4	C: 2	D: -3	E: i	F: -11	G: 3	H: 26
CCc1nn(C(CC)C(=O)NCc2cccs2)c(=O)c2cc3occc3n12 (stereo unspecified)
  A: -5	B: -15	C: 1	D: -2	E: i	F: 5	G: 12	H: 4
CCOC(=O)C1CCCN(Cc2nc(Cc3cccc(F)c3)no2)C1 (stereo unspecified)
  A: 1	B: 3	C: 1	D: 0	E: i	F: -12	G: 3	H: -1
CC1=CCC(C(=O)O)(C(=O)N/N=C/c2cccnc2)C(c2ccccc2)C1 (stereo unspecified)
  A: 4	B: -11	C: 3	D: 9	E: i	F: nt	G: 6	H: -13
O=C1CCCS(=O)(=O)c2ccccc21
  A: 10	B: -8	C: -5	D: -6	E: i	F: -3	G: -3	H: 10
Cc1ccc2oc(C(=O)Nc3ccc(S(=O)(=O)Nc4onc(C)c4C)cc3)cc(=O)c2c1
  A: 1	B: -12	C: 0	D: -1	E: i	F: -7	G: -1	H: 3
O=C1C=C(c2cccc(Cl)c2)C[C@@H](c2ccc(Cl)cc2)C1
  A: -17	B: 53	C: 4	D: 1	E: nt	F: -26	G: nt	H: nt
COc1cc(Cn2c(C(=O)O)cc3sccc32)cc(OC)c1OC
  A: 2	B: nt	C: 3	D: 0	E: i	F: 0	G: 0	H: 6
O=C(NCc1ccccc1F)c1ccc(S(=O)(=O)NCc2ccco2)cc1
  A: -1	B: nt	C: 5	D: 5	E: nt	F: -18	G: nt	H: nt
CCCCC[C@H](O)/C=C/[C@@H]1[C@@H](C/C=C\CCCC(=O)OC)[C@@H](O)C[C@H]1O
  A: nt	B: -9	C: -1	D: 5	E: i	F: 3	G: -18	H: -6
Cn1c(SCC(=O)NCCc2ccccc2)nnc1-c1ccco1
  A: -16	B: -1	C: 2	D: 0	E: i	F: -11	G: 0	H: -8
